Ecoli rRNA inh: inhibits bacterial ribosomal RNA function over humanized ribosomes. E. coli WT GFP vs humanized-ribosome RFP mutants, fluorescence, 24 h; hits give low values; DMSO median 0, no signal -100. GFP signal change (wild-type ribosome), % (no concentration beside the values). hit rate 1.6% among 350,000;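 active = significant combined selectivity score with lowered wild-type GFP, culture density cut under 30%, mutant RFP and density less affected; inactive = any of these conditions unmet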; note: one replicate is shown; some compounds called inactive have numbers as strong as hits
Calb FLC: C. albicans growth modulation with fluconazole; AID 1979; hit rate 0.57% among 300,000; growth inhibition, % (test concentration not listed); C. albicans CaCi-2 (fluconazole-resistant clinical isolate) + fluconazole, Alamar Blue growth, 48 h;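 active = most replicates above 75%; inconclusive = exactly half above 75%; inactive = most below 75%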;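 note: all wells also contain fluconazole at 8 µg/ml as a sub-toxic cotreatment; 0% = median of DMSO wells and 100% = median of geldanamycin control wells; wells of about 8 µL received 7.5 nL stock; the first replicate is given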
Bfl-1 A1 inh: inhibitors of the anti-apoptotic protein A1, read as caspase activation; hit rate 0.066% among 330,000; MEF A1-2A-BIM cells, Caspase-Glo 3/7 luminescence, 3 h; percent of clofoctol response, vehicle zero; caspase activation, % (no concentration beside the values);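 active = over half of replicate activation scores above 10%, or exactly half above 10 with the replicate mean above 10; inconclusive = replicate mean below 10 yet half the replicates above 10; inactive = over half of replicates below 10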;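 note: wells of about 30 µL received 50 nL stock; many hits fall short of the cut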
T cruzi inh: T. cruzi replication inhibition. T. cruzi beta-gal in NIH3T3, luminescence, 90 h. inhibition, % (no concentration beside the values). hit rate 1.4% among 300,000;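 active = mean inhibition across valid replicates above about 55%, limit read from the data; inconclusive = mean below that limit but half or more replicates reach it; inactive = mean below it, under half of replicates reach it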;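 note: signal also drops with host cell toxicity which is not excluded here; 0% = plate median of DMSO wells and 100% = zero luminescence signal; higher percent means less beta-gal luminescence so fewer parasites; stock transfer was 50 nL into about 50 µL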
ALR inh: human ALR oxidase inhibition via reduced H2O2; purified ALR, DTT oxidation, H2O2 HRP-luminol luminescence; AID 485317; hit rate 3.8% among 290,000; inhibition, % (test concentration not listed); P55789;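 active = mean and each replicate at 75% or more; inconclusive = only one of the two met; inactive = neither met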;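 note: stock transfer was 7.5 nL into about 7.5 µL; 0% = neutral wells and 100% = wells with inactivated enzyme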
Target sequence (P55789 whole entry, looked up): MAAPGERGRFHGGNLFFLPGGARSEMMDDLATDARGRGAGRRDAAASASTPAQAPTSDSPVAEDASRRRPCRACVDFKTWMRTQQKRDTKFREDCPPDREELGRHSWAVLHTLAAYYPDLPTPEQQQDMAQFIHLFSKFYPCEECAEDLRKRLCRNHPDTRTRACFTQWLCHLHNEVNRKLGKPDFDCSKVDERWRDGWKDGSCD
Beta cell apopt: blocks beta cell apoptosis; INS-1E cytokine-induced death, ATP luminescence, 48 h; percent of positive-control rescue, neutral wells zero; protection from apoptosis, % (no concentration beside the values); hit rate 0.8% among 300,000; AID 435005;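 active = all replicates at 75% or more, or half of them and the mean; inconclusive = half reach 75% but not the mean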;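 note: 0% = cytokine-treated negative control wells and 100% = positive control rescue; higher means more ATP so stronger rescue from cytokine killing; wells of about 40 µL received 100 nL stock; the first replicate is given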
B2AR ag: activates human beta-2 adrenergic receptor causing internalization. P07550. Am2.2-beta2AR cells, FAP receptor internalization, flow cytometry; reference of the scale not given here. response, % (concentration not given with the values). hit rate 0.43% among 340,000;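 active = response above a set limit, near 3 SD of response in nonfluorescent compounds, cut at about 42% in these data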;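 note: stock transfer was 100 nL into about 11 µL; a reference agonist was the positive control; negative values mostly stem from fluorescent compounds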
Target sequence (P07550 whole entry, looked up): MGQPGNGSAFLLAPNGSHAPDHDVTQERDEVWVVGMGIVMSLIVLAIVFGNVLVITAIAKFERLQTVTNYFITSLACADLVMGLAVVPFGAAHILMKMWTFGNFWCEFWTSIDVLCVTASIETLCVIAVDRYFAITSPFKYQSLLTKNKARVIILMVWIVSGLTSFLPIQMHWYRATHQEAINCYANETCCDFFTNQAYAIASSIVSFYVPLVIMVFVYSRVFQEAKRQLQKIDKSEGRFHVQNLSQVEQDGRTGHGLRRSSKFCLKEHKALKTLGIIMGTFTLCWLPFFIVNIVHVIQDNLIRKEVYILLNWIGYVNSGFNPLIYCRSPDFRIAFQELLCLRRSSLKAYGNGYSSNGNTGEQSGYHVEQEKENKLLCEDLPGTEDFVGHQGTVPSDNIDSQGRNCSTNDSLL
LANA-H2A inh: blocks KSHV LANA binding to histone H2A/H2B; cell-free LANA-H2A/H2B peptide, fluorescence polarization; inhibition, % (test concentration not listed); hit rate 0.6% among 320,000; AID 2629; in the data active = inhibition mostly above about 10%, no sharp cut-off; inactive = mostly below about 6.7%;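 note: stock transfer was 7.5 nL into about 10 µL; 0% = median of vehicle wells and 100% = median of positive control wells; one replicate is shown; the record names a cut of 25% in any replicate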
Ecoli rRNA inh OD600: recorded beside Ecoli rRNA inh, whose call it bears; OD600 change, %; measured here: OD600 growth;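 optical density of the mix in the first replicate; 0 = DMSO median and -100 = no signal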
Ecoli rRNA inh RFP: further read-out of Ecoli rRNA inh, marked with its call; RFP signal change, %; measured here: RFP humanized mutant strains;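 first replicate; 0 = DMSO median and -100 = no signal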
Active calls of the source: *; ? = inconclusive; nt = no result given; & = joins results of further samples. Not all compounds are listed. The share of hits here may be higher or lower than overall.

SMILES | Ecoli rRNA inh | Ecoli rRNA inh OD600 | Ecoli rRNA inh RFP | Calb FLC | Bfl-1 A1 inh | T cruzi inh | ALR inh | Beta cell apopt | B2AR ag | LANA-H2A inh
CCn1cc(S(=O)(=O)c2ccc(C)cc2)c(=O)c2cc(OC)ccc21 | -14 | -13 | 4.2 | 11 | 0.6 | 35 | -6 | -4 | 4 | 2.1
COc1cccc(C2CC(c3c(F)cccc3Cl)n3nc(N)nc3N2)c1 (configuration not stated) | nt | nt | nt | 3 | 0.4 | nt | 3 | nt | 8 | 0.6
CCN(CC)c1ccc(NC(=O)c2c(OC)cccc2OC)c(C)c1 | nt | nt | nt | 13 | -5.0 | 0 | 99* | -7 | -2 | 3.0
CC1(C)Cc2cccc(C(=O)NCc3ccco3)c2O1 | -6 | 15 | 0.2 | -17 | 0.5 | 1 | 5 | -18 | -15 | -1.0
Cc1ccc2nc(CSc3nc(C)ccc3C#N)[nH]c2c1 | 7 | 1 | 3.7 | 4 | -4.1 | -10 | 74 | 8 | 4 | -6.1
O=C(CNC(=O)c1ccc(Cl)cc1Cl)OC1CCCCC1=O (configuration not stated) | 26 | 21 | 1.0 | nt | 0.9 | nt | -11 | -2 | -6 | -0.1
O=C(CCCc1ccccc1)Nc1cccc2c1CCCC2 | nt | nt | nt | -6 | 0.3 | -1 | -11 | nt | 2 | -6.6
CC(=O)Nc1cccc(NC(=O)CSc2ncc(C(=O)Nc3ccccc3)c(=O)n2C)c1 | 5 | 11 | 13 | -3 | -6.9 | -17 | nt | nt | 11 | 4.3
COc1ccc2c(c1)OC[C@H]1[C@@H]2N2C(=O)CNC(=O)[C@@]2(C)[C@H]1c1ccccc1 | -1 | 8 | 7.8 | nt | -1.3 | nt | -4 | -3 | 6 | -3.0
O=Cc1ccc(C(=O)OCC(=O)N2CCCC2)cc1 | 3 | 3 | -2.4 | -7 | -0.8 | -6 | -1 | -3 | 20 | -7.3
COc1ccc(C(=O)Nn2c(SCC(=O)c3ccc(Cl)cc3)nc3ccccc3c2=O)cc1 | nt | nt | nt | -49 | -0.3 | 8 | -6 | nt | 1 | -0.7
CC(Oc1ccc(Cl)cc1)c1ccn[nH]1 (configuration not stated) | -17 | -13 | -2.8 | 1 | -0.7 | -12 | -18 | nt | 8 | 4.3
O=C(Nc1cccc(F)c1)c1ccc(Br)o1 | 7 | 0 | -5.9 | -5 | -0.5 | -21 | -3 | 1 | -1 | -0.4
Cc1cc([N+](=O)[O-])ccc1NC(=O)CSc1nccc(=O)[nH]1 | 9 | 1 | -6.5 | -3 | -0.6 | -8 | -19 | 2 | -3 | 6.8
Cc1cc(SCc2cccc(Cl)c2)nc(=O)[nH]1 | -16 | -4 | 2.1 | -12 | 0.5 | -8 | 8 | -5 | 0 | -1.7
O=C(c1ccccc1NS(=O)(=O)c1ccc2c(c1)OCCO2)N1CCOCC1 | 8 | -2 | 0.0 | -20 | 0.6 | -6 | nt | -4 | -6 | -0.5
CCn1c(CC(=O)Nc2ccccc2F)nnc1SCC(=O)Nc1nncs1 | 6 | 13 | -2.1 | -13 | 0.4 | -11 | -2 | 2 | 4 | 1.4
COc1cccc(C(=O)CSc2nnc(CNc3nc(-c4ccccc4)cs3)n2C)c1 | nt | nt | nt | -3 | 0.4 | 10 | nt | 5 | -4 | 0.0
CCc1nn(CC(=O)NC(C)CCc2ccccc2)c(=O)c2cc3cc(F)ccc3n12 (configuration not stated) | 2 | 11 | -0.3 | 15 | 1.0 | 13 | -5 | 9 | 6 | -3.4
CC(C)(C)C1CCC(=NNC(=O)c2ccc(Br)o2)CC1 (configuration not stated) | nt | nt | nt | 21 | 0.1 | -2 | 3 | -5 | 1 | -3.0
Cc1ccc(C(=O)OC(C)C(=O)N(C)C2CCCCC2)cc1S(=O)(=O)N1CCCCC1 (configuration not stated) | -13 | -30 | -2.8 | nt | 0.2 | nt | -3 | 2 | -8 | 0.1
CCCCCCCCS(=O)c1sc2nc3c(cc2c1N)CCCC3 (configuration not stated) | nt | nt | nt | 1 | -1.4 | 3 | 16 | -1 | 0 | 1.5
CC(=O)N1N=C(c2ccncc2)OC12CCCCCC2 | -1 | -1 | 2.7 | -24 | -1.0 | -30 | nt | -1 | -3 | 4.1
Cn1nccc1C(=O)Nc1ccc(Cl)cc1 | 3 | -5 | -3.2 | 0 | -3.0 | 12 | -3 | 1 | 4 | 1.7
Cc1[nH]c2ccccc2c1C(=O)C(=O)N1c2ccccc2CC1C (configuration not stated) | -24 | -29 | -6.8 | 0 | 1.6 | 6 | -1 | -1 | -2 | -2.8
CCCCN(CCCC)S(=O)(=O)c1ccc(NC(=O)c2cccs2)cc1 | nt | nt | nt | 2 | -0.3 | 56* | -8 | 15 | -2 | -1.2
CCOc1ccc2nc(NCCNC(=O)C(C)C)c(C)cc2c1 | nt | nt | nt | -4 | 0.2 | -4 | 43 | 7 | -12 | 2.0
Cn1c(SCC(=O)c2ccc(F)cc2)nnc1-c1cccnc1 | 14 | 13 | -1.8 | ? | 1.6 | -6 | 21 | -6 | 0 | -2.2
O=C(Cn1cnc2ccccc2c1=O)Nc1cccc(S(=O)(=O)N2CCCCC2)c1 | -11 | -3 | 2.3 | -2 | -0.2 | -4 | -26 | -9 | -8 | 6.0
Cc1cccc(C)c1Nc1c(-c2ccccc2O)nc2ncccn12 | -1 | -1 | -0.5 | 12 | 0.8 | 15 | 45 | -4 | 5 | -2.6
CCCCCCn1nc(C(=O)OCC(=O)NC2CCS(=O)(=O)C2)c2ccccc2c1=O (configuration not stated) | -3 | -7 | 1.7 | -5 | 0.9 | -1 | 25 | 0 | -2 | 2.1
CNC(=O)c1cc2c(s1)-c1ccccc1CC2 | -27 | -35 | -5.8 | 40 | -0.3 | 5 | -56 | 2 | 0 | -4.9
CN1CCC(OC(c2ccccc2)c2ccccc2)CC1 | 3 | 4 | -0.4 | nt | -0.8 | 14 | -13 | 2 | 2 | -13&-0.9
CCOC(=O)c1[nH]c2ccc(OCC)cc2c1NC(=O)CN1CCN(c2ccccn2)CC1 | nt | nt | nt | 12 | -0.4 | 27 | -14 | 4 | 3 | 4.5
Cc1noc(C)c1S(=O)(=O)N1CCN(c2ccccc2)CC1 | -1 | -2 | -9.6 | -2 | 0.7 | 8 | ? | -5 | 7 | -3.7
CC1CCN(S(=O)(=O)c2cccc(C(=O)N(C)C3(C)CCS(=O)(=O)C3)c2)CC1 (configuration not stated) | -1 | 10 | -2.5 | -4 | 0.2 | -12 | -3 | -4 | 8 | 3.1
O=C(O)CCc1nn2c3ccccc3n(Cc3ccccc3F)c2nc1=O | 2 | 7 | -1.4 | 10 | 0.3 | -7 | 0 | -3 | -5 | -4.9
CC(Oc1ccc(F)cc1F)C(=O)/C=C/N(C)C (configuration not stated) | 0 | 6 | 0.0 | -25 | 0.7 | -7 | -37 | -6 | 7 | -2.2
O=C(c1cc2cc([N+](=O)[O-])ccc2oc1=O)N1CCN(c2ncccn2)CC1 | nt | nt | nt | -11 | 0.2 | -16 | -10 | 0 | -5 | -2.0
Cc1cc(-n2nc(C)cc2C)n2nc(C)c(-c3ccc(Cl)cc3)c2n1 | nt | nt | nt | 44 | 0.4 | -2 | -7 | -2 | 4 | -1.4
COc1ccc(OCCC(=O)N2CCCCC2)cc1 | nt | nt | nt | ? | -0.4 | -9 | -4 | -3 | -4 | -2.6
COc1ccc(-c2cc(C(F)(F)F)n3ncc(C(=O)O)c3n2)cc1OC | nt | nt | nt | 2 | 0.2 | -7 | -9 | -2 | -5 | 3.1
CCOc1ccc(C2=CSC3=NCCN23)cc1Cl | 10 | 2 | 2.5 | -103 | -0.3 | 20 | 4 | -7 | 1 | -2.5
Cc1ccc2c(c1)CN1CN2Cc2cc(C)ccc21 | nt | nt | nt | -34 | 0.3 | -4 | -8 | -4 | -8 | 1.6
O=C(NC1CCN(Cc2ccccc2)CC1)c1c(Cl)cccc1Cl | 6 | 7 | 0.7 | -21 | 0.4 | 12 | -4 | 5 | -6 | 3.0
OCCNc1nc(-c2ccccc2)c2cc(Cl)ccc2n1 | -20 | -21 | 0.9 | 18 | -1.1 | 30 | -26 | -4 | -6 | -0.4
CCOc1ccc(CNC(=O)c2ccc(Sc3ccc(Cl)cc3)c(NC(C)=O)c2)cc1OC | 0 | 1 | -4.8 | 8 | 0.2 | 11 | -18 | -5 | 1 | -2.2
COc1ccccc1OCCNC(=O)C1CC(=O)N(c2ccc3c(c2)OCCO3)C1 (configuration not stated) | 0 | 7 | -0.7 | 14 | -0.1 | -1 | 1 | -5 | 0 | -1.0
COC(=O)c1cc(NC(=O)c2nn(C)c(=O)c3ccccc23)cc(C(=O)OC)c1 | 12 | 17 | 1.4 | -3 | 0.7 | -14 | nt | 0 | 6 | 1.9
COc1ccc(CNC(=O)CCc2c(C)nc3ncnn3c2C)cc1 | nt | nt | nt | 9 | -0.1 | -6 | -5 | -6 | -6 | -2.3
Other entries follow.
SMILES | Ecoli rRNA inh | Ecoli rRNA inh OD600 | Ecoli rRNA inh RFP | Calb FLC | Bfl-1 A1 inh | T cruzi inh | ALR inh | Beta cell apopt | B2AR ag | LANA-H2A inh
CN1CCN(C(=O)c2cnn(-c3ccccc3)c2NC(=O)c2ccccc2F)CC1 | nt | nt | nt | -7 | 0.2 | -5 | -9 | 7 | -8 | -3.6
CCc1noc(C)c1C(=O)Nc1ncc(C)s1 | nt | nt | nt | -32 | 0.0 | -16 | 1 | 3 | 1 | 1.6
C/C(=C/C(=O)Nc1cccc(F)c1)N1CCCC1 | 3 | 0 | -0.6 | 8 | 0.0 | -3 | 5 | 1 | 2 | 3.4
COc1ccccc1N1CCN(S(=O)(=O)c2cnc[nH]2)CC1 | 3 | -2 | -7.0 | 1 | 0.3 | -11 | 98* | -1 | 9 | 0.2
O=[N+]([O-])c1ccc(S(=O)(=O)CC(CN2CCOCC2)N2CCOCC2)cc1 (configuration not stated) | 21 | 15 | -1.4 | 25 | 0.9 | 0 | -20 | -14 | -9 | -0.6
C[C@H](CO)N1C[C@H](C)[C@@H](CN(C)S(=O)(=O)c2cccs2)Oc2ccc(NC(=O)Nc3ccc4c(c3)OCO4)cc2C1=O | -3&-7 | 2&0 | 2.2&7.3 | nt | 0.0 | nt | 0 | -4 | 2 | 16
Cc1cc(NC(=O)C(C)SCC(=O)Nc2nnc(CC(C)C)s2)no1 (configuration not stated) | 6 | 13 | -0.1 | -7 | 0.2 | 0 | nt | -3 | -2 | -5.0
O=C(/C=C/c1ccccc1)Nc1cccnc1Oc1ccccc1F | -16* | 4.5* | -1.9* | 3 | -1.2 | 11 | -3 | 10 | -1 | -1.9
Nc1nnc(SCC(=O)c2ccco2)s1 | nt | nt | nt | 2 | 0.3 | -6 | 24 | -9 | -2 | 8.2
COc1ccc(-c2[nH]c(-c3ccc(SC)cc3)nc2SCC(=O)Nc2nccs2)cc1 | 13 | 12 | -0.5 | 4 | 0.6 | 5 | nt | -3 | 8 | -1.9
Cn1c(SCC(=O)Nc2ccccc2)nc2c([nH]c3ccccc32)c1=O | 4 | 6 | -0.8 | -5 | -0.3 | -21 | -5 | 19 | -5 | -1.8

High-throughput results from PubChem.
